BJeLR viability – lowers viability of BJeLR cells; 0.64% of 30,000 active; BJeLR fibroblasts viability, CellTiterGlo ATP luminescence, 48 h; HRASV12, hTERT and SV40 LT/ST transformed; viability loss activity score, % (concentration not given with the values); AID 2275; in the data active = viability loss activity score above about 50%; about a fifth of its hits are not listed in these tables;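 also: higher score means fewer live cells and less ATP luminescence; stock transfer was 50 or 100 nL into about 30 µL; 0% = vehicle wells and 100% = a reference killing control; one replicate is shown; the record names a cut of 85%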
A1 inhib – inhibitors of A1 | MEF A1-2A-BIM cells, caspase-Glo luminescence, 3 h; percent of clofoctol signal, DMSO as zero | caspase activation, % (test concentration not listed) | 0.51% of 21,000 active | AID 2241;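 active = most replicate scores above 10, or exactly half above 10 with mean activity above 10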;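 also: effector caspase 3 and 7 activity cleaving a DEVD luciferin substrate; 50 nL library stock added to about 30 µL; numbers are from one replicate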
* hit, by the source's call; / = no result given. The list is partial; the hit share may differ from the screen's.

SMILES	BJeLR viability	A1 inhib
COc1ccc(OCC2c3cc(OC)c(OC)cc3CCN2C(=O)Nc2ccc(Cl)cc2)cc1 (stereo not drawn)	2.4	-0.2
COc1ccc(S(=O)(=O)Nc2cccc3c2O[C@H](CN(C)Cc2ccc(Oc4ccccc4)cc2)[C@H](C)CN([C@H](C)CO)C3=O)cc1	-0.9	/
CCOc1ccc2nc(C34CC5CC(CC(C5)C3)C4)ccc2c1	-1.5	0.4
COC(=O)C1=CN(C(C(=O)OC)c2ccccc2)C=C(C(=O)OC)C1c1ccc(F)cc1 (stereo not drawn)	-1.1	0.2
CNc1nc2ccccn2c(=O)c1/C=C1\SC(=S)N(C)C1=O	-1.0	/
COC(=O)c1ccccc1NC(=O)c1ccc2c(c1)OCO2	-1.6	-0.3
C[C@@H]1CN([C@@H](C)CO)C(=O)c2cc(NC(=O)NC3CCCCC3)ccc2O[C@H]1CN(C)Cc1ccc(Oc2ccccc2)cc1	7.3	-0.5
S=c1[nH]c(-c2ccccc2)cn1-c1ccccc1	-2.7	/
CS/C(NC1CCCCC1)=C(/C#N)S(=O)(=O)c1ccc(Cl)cc1	-1.4	0.1
CC(Oc1ccccc1)C(=O)N1CCCc2ccccc21 (stereo not drawn)	-5.4	0.9
C[C@@H]1CN([C@H](C)CO)C(=O)c2cc(NC(=O)C3CC3)ccc2O[C@@H]1CN(C)Cc1ccccc1	5.7	0.4
O=C(OC[C@@]1(O)[C@H]2[C@H](O[C@@H]3O[C@H](CO)[C@@H](O)[C@H](O)[C@H]3O)OC=C[C@H]2[C@H](O)[C@H]1Cl)c1ccccc1	-3.2	-0.6
CNC[C@@H]1Oc2ccc(NS(C)(=O)=O)cc2C(=O)N([C@H](C)CO)C[C@H]1C	4.4	0.3
C[C@H](CO)N1C[C@H](C)[C@H](CN(C)Cc2ccc3c(c2)OCO3)Oc2ccc(NS(=O)(=O)c3cn(C)cn3)cc2C1=O	-2.4	-0.1
O=C(O)c1cc(N(Cc2ccccc2O)Cc2cc(O)ccc2O)ccc1O	1.4	0.1
CCc1ccc(/C=C2\Cc3ccccc3C2=O)cc1	4.7	/
COc1ccc(S(=O)(=O)Nc2cccc3c2O[C@@H](CN(C)S(=O)(=O)c2ccc(Cl)cc2)[C@@H](C)CN([C@@H](C)CO)C3=O)cc1	-1.9	/
Cc1ccc(S(=O)(=O)N(C)C[C@@H]2Oc3ccc(NC(=O)CCN4CCOCC4)cc3C(=O)N([C@@H](C)CO)C[C@@H]2C)cc1	0.2	-0.8
C[C@H]1CN([C@@H](C)CO)C(=O)c2cc(NC(=O)Cn3cnnn3)ccc2O[C@@H]1CN(C)Cc1ccc(Oc2ccccc2)cc1	-2.7	0.2
O=C1c2ccccc2-c2c(-c3ccccc3)nc3ccccc3c21	-4.8	/

By substructure: those above with two or more sulfur atoms.
SMILES	BJeLR viability	A1 inhib
CNc1nc2ccccn2c(=O)c1/C=C1\SC(=S)N(C)C1=O	-1.0	/
CS/C(NC1CCCCC1)=C(/C#N)S(=O)(=O)c1ccc(Cl)cc1	-1.4	0.1
COc1ccc(S(=O)(=O)Nc2cccc3c2O[C@@H](CN(C)S(=O)(=O)c2ccc(Cl)cc2)[C@@H](C)CN([C@@H](C)CO)C3=O)cc1	-1.9	/

New compounds follow.
SMILES	BJeLR viability	A1 inhib
COc1cc(OC)cc(C(=O)Nn2cc(C(=O)N3CCN(C)CC3)c3ccccc3c2=O)c1	-6.8	/
Cc1ccc(S(=O)(=O)Nc2ccc3c(c2)C(=O)N([C@@H](C)CO)C[C@@H](C)[C@@H](CN(C)S(=O)(=O)c2cccs2)O3)cc1	-6.4	-0.6
Clc1cccc(Cl)c1Cn1nnc(N2CCCC2)n1	-7.2	0.4
CC(=O)Nc1cccc2ncccc12	-2.4	0.5
CC1CCCCC1NC(=O)CCn1nc(-c2ccccc2)ccc1=O (stereo not drawn)	-0.9	-0.1
O=S1(=O)CCC(N=Cc2ccc(-c3cccc(C(F)(F)F)c3)o2)C1 (stereo not drawn)	-0.1	-0.9
C[C@H]1CN([C@@H](C)CO)C(=O)c2cc(NC(=O)Nc3ccccc3)ccc2O[C@H]1CN(C)C(=O)Nc1cccc2ccccc12	-5.8	0.6
COc1ccc(NC(=O)Nc2ccc3c(c2)C(=O)N([C@H](C)CO)C[C@H](C)[C@H](CN(C)S(=O)(=O)c2cccs2)O3)cc1	2.2	0.2
Cc1ccc(S(=O)(=O)Nc2ccc3c(c2)C(=O)N([C@@H](C)CO)C[C@H](C)[C@@H](CN(C)S(=O)(=O)c2ccc(F)cc2)O3)cc1	1.3	-0.3
C[C@@H]1CN([C@H](C)CO)C(=O)c2cccc(NC(=O)Nc3ccc(C(F)(F)F)cc3)c2O[C@@H]1CN(C)Cc1ccc(Cl)c(Cl)c1	-1.2	/
C[C@@H]1CN([C@H](C)CO)C(=O)c2cc(NC(=O)Nc3ccc(F)cc3)ccc2O[C@H]1CN(C)S(=O)(=O)c1ccccc1	-4.2	0.1
CC(C)(C)c1cc(C(=O)NCCCn2ccnc2)cc(C(C)(C)C)c1	-2.5	-1.2
C[C@H]1CN([C@@H](C)CO)C(=O)c2cc(NC(=O)Nc3ccccc3)ccc2O[C@@H]1CN(C)C(=O)Nc1ccc2c(c1)OCO2	-1.3	0.2
C[C@H](CO)N1C[C@H](C)[C@H](CN(C)C(=O)Nc2ccc3c(c2)OCO3)Oc2c(NC(=O)Nc3ccc(F)cc3)cccc2C1=O	-2.0	/
COc1ccccc1Nc1c2c(nc3ccc(NC(=O)CCN4CCOCC4)cc13)CCCC2	3.9	/
CC(C)(C)OC(=O)N1CCN(C(=O)c2ccccc2C(=O)O)CC1	-1.6	/
COc1cc2c(cc1OC)CN(C(=O)Cn1c(C)cc(C)c(C#N)c1=S)CC2	3.3	-0.5
C[C@@H]1CN([C@H](C)CO)C(=O)c2cc(NC(=O)Cc3cn(C)c4ccccc34)ccc2O[C@@H]1CN(C)S(=O)(=O)c1ccccc1	0.6	1.1
C[C@H]1CN([C@@H](C)CO)C(=O)c2cc(NS(C)(=O)=O)ccc2O[C@@H]1CN(C)Cc1ccc(C(=O)O)cc1	2.6	0.6
CCN(C1CCCCC1)S(=O)(=O)c1ccc(C)cc1	3.6	0.1

Sorted by the number under A1 inhib (highest first): some entries from above.
Compound,A1 inhib
C[C@H]1CN([C@@H](C)CO)C(=O)c2cc(NC(=O)Nc3ccccc3)ccc2O[C@H]1CN(C)C(=O)Nc1cccc2ccccc12,0.6
C[C@H]1CN([C@@H](C)CO)C(=O)c2cc(NC(=O)Nc3ccccc3)ccc2O[C@@H]1CN(C)C(=O)Nc1ccc2c(c1)OCO2,0.2
Cc1ccc(S(=O)(=O)Nc2ccc3c(c2)C(=O)N([C@@H](C)CO)C[C@@H](C)[C@@H](CN(C)S(=O)(=O)c2cccs2)O3)cc1,-0.6

Single records, as listed above. Screens in order: BJeLR viability	A1 inhib
`CNC[C@@H]1Oc2ccc(NS(C)(=O)=O)cc2C(=O)N([C@H](C)CO)C[C@H]1C` reads 4.4	0.3
`CNc1nc2ccccn2c(=O)c1/C=C1\SC(=S)N(C)C1=O` reads -1.0	/
`CCOc1ccc2nc(C34CC5CC(CC(C5)C3)C4)ccc2c1` reads -1.5	0.4
`Cc1ccc(S(=O)(=O)Nc2ccc3c(c2)C(=O)N([C@@H](C)CO)C[C@@H](C)[C@@H](CN(C)S(=O)(=O)c2cccs2)O3)cc1` reads -6.4	-0.6
`CC(C)(C)OC(=O)N1CCN(C(=O)c2ccccc2C(=O)O)CC1` reads -1.6	/

Other structures.
SMILES	BJeLR viability	A1 inhib
CCOC(=O)CSc1nnc(-c2ccc3ncccc3c2)n1C	-0.8	0.2
C[C@@H]1CN([C@@H](C)CO)C(=O)c2cc(NC(=O)c3ccncc3)ccc2O[C@@H]1CN(C)Cc1ccccc1	-1.5	-1.4
COc1ccc(CN(C)C[C@H]2Oc3ccc(NC(=O)Nc4ccccc4)cc3C(=O)N([C@H](C)CO)C[C@@H]2C)cc1	-6.7	1.9
C[C@@H]1CN([C@@H](C)CO)C(=O)c2cc(NC(=O)Cn3cnnn3)ccc2O[C@H]1CN(C)Cc1ccc(Oc2ccccc2)cc1	2.4	0.3
Cc1ccc(CNC(=O)c2ccccc2C(=O)O)cc1	-1.8	0.6
CC(C)[C@H](NC(=O)OCc1ccccc1)C(=O)N[C@H](C=O)Cc1ccccc1	5.5	-0.6
COc1ccc(CO[C@H]2O[C@H](CO)[C@@H](O)[C@H](O)[C@H]2NC(C)=O)c2cc(C)oc12	-6.2	-0.3
O=C(c1scc2c1CCCC2)N1CCN(c2ccccc2O)CC1	-1.8	/
Cc1ccc(S(=O)(=O)N(C)C[C@@H]2Oc3c(NS(=O)(=O)c4ccccc4)cccc3C(=O)N([C@H](C)CO)C[C@@H]2C)cc1	-6.3	/
CC(C)(C)c1ccc(=O)[nH]n1	4.7	0.5
COc1ccc(NC(=O)Nc2ccc3c(c2)C(=O)N([C@@H](C)CO)C[C@H](C)[C@@H](CN(C)Cc2ccc(-c4ccccc4)cc2)O3)cc1	1.5	0.7
c1ccc2cc(Nc3ncnc4[nH]ncc34)ccc2c1	-2.8	-0.1
C[C@@H]1CN([C@@H](C)CO)C(=O)c2cc(N(C)C)ccc2O[C@@H]1CN(C)Cc1ccc(Oc2ccccc2)cc1	-5.3	1.5
Cc1ccc(-c2c[n+](=O)c3c(n2[O-])CCC3)cc1	-0.5	1.4
CC(=O)Nc1nonc1NC(=O)c1ccc(C)cc1	1.9	-0.1
C[C@@H]1CN([C@@H](C)CO)C(=O)c2cc(NS(=O)(=O)c3ccc(Cl)cc3)ccc2O[C@@H]1CN(C)CC1CCCCC1	7.0	0.1
CC(C)c1ncc2c(n1)-c1cc(Cl)ccc1SC2	2.2	0.7
Cc1ccc(C(O)c2cccnc2)o1 (stereo not drawn)	-1.7	-0.3
C[C@H]1CN([C@@H](C)CO)C(=O)c2cccc(NC(=O)C3CCCCC3)c2O[C@@H]1CN(C)Cc1ccccc1	1.8	/
Cc1cccc(NC(=O)CN2c3cccc4cccc(c34)S2(=O)=O)c1	6.1	0.3
Cc1ccc(CNC(=O)CCC(=O)Nc2ccc3nc(N4CCCCC4)cc(C)c3c2)cc1	0.5	/
C[C@H](CO)N1C[C@H](C)[C@@H](CN(C)S(=O)(=O)c2ccc(F)cc2)Oc2c(NC(=O)c3nc4ccccc4s3)cccc2C1=O	-5.4	/
COC(=O)Nc1nc2ccc(SC(C)C)cc2[nH]1	44	0.6
Cc1ccc(N2CCN(C(=O)c3cnn4c(C)c(Cc5ccccc5Cl)c(C)nc34)CC2C)cc1 (stereo not drawn)	-3.0	2.0
C[C@H](CO)N1C[C@H](C)[C@@H](CN(C)Cc2ccncc2)Oc2c(NS(C)(=O)=O)cccc2C1=O	-4.7	/
C[C@H](CO)N1C[C@H](C)[C@@H](CN(C)Cc2ccc(Cl)c(Cl)c2)Oc2ccc(NC(=O)CCCN(C)C)cc2C1=O	2.7	0.4
O=C(Nc1cccs1)Nc1nnc(C2CC2)s1	3.9	-4.4
CSc1cccc(NC(=O)CN(C)S(=O)(=O)c2cnc[nH]2)c1	16	-0.4
COc1ccc(NC(=O)N(C)C[C@H]2Oc3ccc(N(C)C)cc3C(=O)N([C@H](C)CO)C[C@H]2C)cc1	1.4	0.6
COc1cc2c(cc1OC)C(C)N(C(=O)Nc1ccccc1)CC2 (stereo not drawn)	19	2.3
C[C@H]1CN([C@@H](C)CO)C(=O)c2cccc(NS(=O)(=O)c3ccc(Cl)cc3)c2O[C@H]1CN(C)CC1CCCCC1	-6.9	/
CCCS(=O)(=O)/C(C#N)=C/c1sccc1Oc1ccccc1	-8.0	-1.5
C[C@H]1CN([C@@H](C)CO)C(=O)c2cc(NS(=O)(=O)c3ccccc3)ccc2O[C@H]1CN(C)S(=O)(=O)c1cn(C)cn1	2.3	-0.2
C[C@@H]1CN([C@@H](C)CO)C(=O)c2cc(NS(=O)(=O)c3cn(C)cn3)ccc2O[C@H]1CN(C)S(C)(=O)=O	0.4	-0.1
COc1ccc(OC)c(N=c2cc(-c3ccc4c(c3)OCO4)oc3ccccc23)c1	25	/

By substructure: the compounds so far with a cyano group (3)
SMILES	BJeLR viability	A1 inhib
CS/C(NC1CCCCC1)=C(/C#N)S(=O)(=O)c1ccc(Cl)cc1	-1.4	0.1
COc1cc2c(cc1OC)CN(C(=O)Cn1c(C)cc(C)c(C#N)c1=S)CC2	3.3	-0.5
CCCS(=O)(=O)/C(C#N)=C/c1sccc1Oc1ccccc1	-8.0	-1.5

Compound activity (PubChem BioAssay)
